A1 inh – inhibitors of the anti-apoptotic protein A1, read as caspase activation | MEF A1-2A-BIM cells, Caspase-Glo 3/7 luminescence, 3 h; percent of clofoctol response, vehicle zero | caspase activation, % (concentration not given with the values) | 0.066% of 330,000 active;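 active = over half of replicate activation scores above 10%, or exactly half above 10 with the replicate mean above 10; inconclusive = replicate mean below 10 yet half the replicates above 10; inactive = over half of replicates below 10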;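 note: wells of about 30 µL received 50 nL stock; many hits fall short of the cut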
RanGTP-Impb inh – disruptors of Ran-importin-beta complex formation – biochemical, FRET, CFP-Ran, YFP-importin-beta, homogeneous, primary screen; cell-free CFP-Ran/YFP-importin-beta FRET ratio; inhibition, % (no concentration beside the values); 1.1% of 300,000 active;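 active = most replicates above 15%; inconclusive = exactly half above 15%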;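 note: 0% = DMSO wells and 100% = Ran loaded with GDP instead of GTP; wells of about 40 µL received 100 nL stock; the first replicate is given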
AF4-AF9 inh – blocks AF4 peptide binding to human AF9. P42568. AlphaScreen, biotin-AF4 peptide binding to FLAG-AF9. inhibition, % at 10 µM. 0.47% of 350,000 active. AID 651704;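 active = every replicate reaching a set inhibition limit, whatever the replicate mean, cut at about 25% in these data; inconclusive = mean inhibition reaches that limit but some replicates miss it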;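 note: 0% = plate neutral control median and 100% = total signal loss; the record names both 10 and 1 µM as test concentration; the first replicate is given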
Target sequence (P42568 whole entry, looked up): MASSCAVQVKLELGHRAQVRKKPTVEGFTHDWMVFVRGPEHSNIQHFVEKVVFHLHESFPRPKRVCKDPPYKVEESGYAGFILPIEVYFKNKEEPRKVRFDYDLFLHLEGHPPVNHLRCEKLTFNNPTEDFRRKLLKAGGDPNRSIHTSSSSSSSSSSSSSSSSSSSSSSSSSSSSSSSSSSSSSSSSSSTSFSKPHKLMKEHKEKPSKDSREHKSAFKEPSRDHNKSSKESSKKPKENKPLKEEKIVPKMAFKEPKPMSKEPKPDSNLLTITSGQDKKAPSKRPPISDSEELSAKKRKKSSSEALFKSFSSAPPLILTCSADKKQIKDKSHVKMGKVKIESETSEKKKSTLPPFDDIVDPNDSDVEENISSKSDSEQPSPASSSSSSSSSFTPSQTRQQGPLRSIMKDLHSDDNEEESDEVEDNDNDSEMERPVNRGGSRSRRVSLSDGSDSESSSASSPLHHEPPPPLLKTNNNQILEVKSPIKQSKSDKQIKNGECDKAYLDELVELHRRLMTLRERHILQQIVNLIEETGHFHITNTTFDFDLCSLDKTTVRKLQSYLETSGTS
T cruzi inh – blocks replication of Trypanosoma cruzi; inhibition, % (no concentration beside the values); 1.4% of 300,000 active; AID 1885; T. cruzi beta-gal in NIH3T3, luminescence, 90 h;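 active = mean inhibition across valid replicates above about 55%, limit read from the data; inconclusive = mean below that limit but half or more replicates reach it; inactive = mean below it, under half of replicates reach it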;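 note: signal also drops with host cell toxicity which is not excluded here; 0% = plate median of DMSO wells and 100% = zero luminescence signal; higher percent means less beta-gal luminescence so fewer parasites; stock transfer was 50 nL into about 50 µL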
Beta cell apopt – blocks beta cell apoptosis. 0.8% of 300,000 active. INS-1E cytokine-induced death, ATP luminescence, 48 h; percent of positive-control rescue, neutral wells zero. protection from apoptosis, % (test concentration not listed);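 active = all replicates at 75% or more, or half of them and the mean; inconclusive = half reach 75% but not the mean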;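 note: 0% = cytokine-treated negative control wells and 100% = positive control rescue; higher means more ATP so stronger rescue from cytokine killing; wells of about 40 µL received 100 nL stock; the first replicate is given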
Calb FLC – affects C. albicans growth with fluconazole | C. albicans CaCi-2 (fluconazole-resistant clinical isolate) + fluconazole, Alamar Blue growth, 48 h | growth inhibition, % (concentration not given with the values) | 0.57% of 300,000 active | AID 1979;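 active = most replicates above 75%; inconclusive = exactly half above 75%; inactive = most below 75%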;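 note: all wells also contain fluconazole at 8 µg/ml as a sub-toxic cotreatment; 0% = median of DMSO wells and 100% = median of geldanamycin control wells; wells of about 8 µL received 7.5 nL stock; the first replicate is given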
Ecoli rRNA inh – inhibitors of bacterial rRNA selective over humanized ribosomes | 1.6% of 350,000 active | AID 720706 | GFP signal change (wild-type ribosome), % (test concentration not listed) | E. coli WT GFP vs humanized-ribosome RFP mutants, fluorescence, 24 h; hits give low values; DMSO median 0, no signal -100;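 active = significant combined selectivity score with lowered wild-type GFP, culture density cut under 30%, mutant RFP and density less affected; inactive = any of these conditions unmet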; note: one replicate is shown; some compounds called inactive have numbers as strong as hits
Vif A3G – HIV-1 Vif–A3G interaction blockers – biochemical, TR-FRET, GST-Vif 1-94, biotin-A3G peptide, dose response retest, primary screen (AID 1117319). TR-FRET GST-Vif / biotin-A3G peptide binding; higher % means a stronger effect; test concentration not given here; strong numbers were not always called active. inhibition, %; hits with a dose series show IC50 in µM. 0.57% of 260,000 active;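 active = above the screen mean plus three standard deviations and confirmed in dose response; inconclusive = results disagree or hit not tested in dose response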;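 note: Vif residues 1-94 fused to GST binding biotinylated APOBEC3G peptide 110-148; 0% = full assay without inhibitor and 100% = GST in place of GST-Vif; retest series ran down from 100 µM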
Ecoli rRNA inh OD600 – also measured in Ecoli rRNA inh; calls as there; OD600 change, %; measured here: OD600 growth;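 optical density of the mix in the first replicate; 0 = DMSO median and -100 = no signal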
Ecoli rRNA inh RFP – recorded beside Ecoli rRNA inh, whose call it bears; RFP signal change, %; measured here: RFP humanized mutant strains;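 first replicate; 0 = DMSO median and -100 = no signal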
Active calls of the source: *; ? = inconclusive; . = not tested or not shown. An excerpt; the hit share may differ from the screen's.

SMILES	A1 inh	RanGTP-Impb inh	AF4-AF9 inh	T cruzi inh	Beta cell apopt	Calb FLC	Ecoli rRNA inh	Ecoli rRNA inh OD600	Ecoli rRNA inh RFP	Vif A3G
CCc1ccc(NC(=O)C2CCCN2S(=O)(=O)c2ccc3c(c2)C(C)(C)C(=O)N3C)cc1 (stereo unspecified)	-0.5	1.0	-1.4	-4	-7	3	-5	-10	0.7	-5%
Cc1ccc(OCC(=O)N/N=C2/SCC(=O)N2Cc2ccco2)cc1	0.6	1.7	-0.3	-10	1	-7	6	-3	1.5	11%
CCOC(=O)c1c(-n2cnnn2)sc2c1CCCC2	0.8	3.6	-0.8	4	-1	2	-18	-12	1.9	.
O=C(Nc1ccc2c(c1)OCO2)c1cnn2cccnc12	-4.2	?	0.0	-22	-4	10	-16	-29	-3.0	0%
Cc1ccc(S(=O)(=O)N(C(=O)c2ccncc2)c2ccc(OC(=O)c3ccncc3)c3ccccc23)cc1	0.3	0.0	-14	5	-26	-12	12	0	13	21%
Cc1ccc2cc(NC(=O)c3ccc(C(C)(C)C)cc3)ccc2n1	-0.7	-0.1	-1.8	13	.	1	-20	-40	-4.8	-6%
Nc1cc2sc(-c3ccc(C(=O)O)cc3)nc2cc1Cl	-0.3	-10	-6.9	-14	11	2	-33*	-17*	-13*	.
Cc1ccc(C(=O)NN2C(=O)CSC2=S)cc1	0.4	3.9	.	-16	2	-9	.	.	.	4%
CC(NC(=O)C(=O)NN=C1CCCC1)c1ccccc1 (stereo unspecified)	0.5	0.9	-2.0	4	-2	4	10	7	-2.3	.
COc1ccccc1OCC(=O)NNC(=O)c1ccoc1C	1.1	?	?	-12	.	26	12	6	-4.1	0%
COc1ccc(S(=O)(=O)NNc2nc(C)cc(C)n2)cc1Br	0.4	-0.4	-7.0	-3	-2	.	2	10	-1.7	.
O=C(/C=C/c1cccs1)NC(=S)Nc1ccc(C(=O)O)cc1	0.6	6.1	-38	5	2	-14	4	-6	-3.4	20%
CS(=O)(=O)Nc1ccc(C(=O)NCCc2ccccc2)cc1	-0.4	4.4	.	-3	-2	-6	.	.	.	0%
CCN(CC)c1ccc(CN2CCCCCC2)cc1	-0.1	-3.7	.	48	5	-2	.	.	.	7%
O=C(NCCS(=O)(=O)c1ccc(Br)cc1)c1ccc(Cl)cc1Cl	1.0	-2.5	-7.1	-5	0	11	-1	1	-1.7	.
C/C(=N\NC(=O)Cc1ccccc1)c1ccc(Cl)s1	0.1	4.3	0.5	1	-4	-3	9	9	-2.4	.
O=S(=O)(Nc1ccc2ccccc2n1)c1ccccc1Cl	-0.7	3.4	-2.0	0	1	2	5	0	3.8	-6%
COc1ccccc1/C=C(/CC(=O)NCc1ccc(F)cc1)c1nc2ccccc2s1	-0.5	-3.7	0.1	25	-1	1	.	.	.	-7%
CCOC(=O)C1=C(CS(=O)(=O)c2ccccc2)NC(=O)NC1c1ccc(O)c(OC)c1 (stereo unspecified)	1.2	-1.2	2.3	9	-7	5	4	7	-4.4	3%
Cc1nc2cc(NC(=O)c3cccc(S(C)(=O)=O)c3)ccc2o1	-0.3	5.0	3.0	-2	4	-7	6	6	0.2	.
CC12CCC(C(=O)N(CC(=O)O)C1=O)C2(C)C (stereo unspecified)	0.2	5.1	1.5	4	2	9	23	13	2.7	6%
O=C1CCCN1CCC(=O)N1CCCC(Nc2ccc(F)c(F)c2)C1 (stereo unspecified)	-1.2	-0.3	0.2	8	-3	6	1	17	0.8	.
CN(CC(=O)Nc1cccnc1Cl)S(=O)(=O)c1ccc(Cl)cc1	0.9	2.5	-2.7	-3	-1	-1	0	-12	-1.9	1%
Cc1cccc(C)c1NC(=S)N(CCN(C)C)C(C)c1cccnc1 (stereo unspecified)	0.5	3.2	1.3	12	-3	-4	11	6	-1.1	.
O=C(CSc1n[nH]c(=O)n1-c1ccccc1)Nc1ccccc1	0.4	-3.7	-4.1	-2	-5	0	.	.	.	-11%

Not a retest: three of the compounds above.
SMILES	A1 inh	RanGTP-Impb inh	AF4-AF9 inh	T cruzi inh	Beta cell apopt	Calb FLC	Ecoli rRNA inh	Ecoli rRNA inh OD600	Ecoli rRNA inh RFP	Vif A3G
CN(CC(=O)Nc1cccnc1Cl)S(=O)(=O)c1ccc(Cl)cc1	0.9	2.5	-2.7	-3	-1	-1	0	-12	-1.9	1%
Cc1cccc(C)c1NC(=S)N(CCN(C)C)C(C)c1cccnc1 (stereo unspecified)	0.5	3.2	1.3	12	-3	-4	11	6	-1.1	.
O=C(CSc1n[nH]c(=O)n1-c1ccccc1)Nc1ccccc1	0.4	-3.7	-4.1	-2	-5	0	.	.	.	-11%

Continuation.
SMILES	A1 inh	RanGTP-Impb inh	AF4-AF9 inh	T cruzi inh	Beta cell apopt	Calb FLC	Ecoli rRNA inh	Ecoli rRNA inh OD600	Ecoli rRNA inh RFP	Vif A3G
CCCCn1c(N)c(N(CC(C)C)C(=O)c2cc(S(=O)(=O)N3CCOCC3)ccc2Cl)c(=O)[nH]c1=O	0.0	1.6	4.1	1	.	6	8	4	2.2	-7%
O=C(NCCCCc1ccccc1)c1ccccc1F	1.0	6.8	1.9	-6	-3	2	-18	-18	-2.8	.
O=C(NCc1cc(C(F)(F)F)ccc1F)C1CCC(=O)N(C2CCCCCC2)C1 (stereo unspecified)	-0.6	2.1	0.5	-1	4	5	-8	-2	-0.4	.
CCCCn1nc(C(=O)NCC(=O)Nc2c(C)cccc2C)c2ccccc2c1=O	-0.5	.	0.8	.	-7	.	-8	-17	3.0	-4%
CCC(C)(C)NC(=O)c1cc([N+](=O)[O-])ccc1N1CCCCC1	0.1	0.3	6.8	16	5	28	-12	4	-2.0	?
Cc1ccc(NS(=O)(=O)c2cn(C)c(=O)n(C)c2=O)cc1C	-0.1	2.5	4.9	-12	1	2	0	11	-3.6	.
COc1ccc(S(=O)(=O)Nc2cccc(SC)c2)cc1OC	0.0	2.8	.	1	6	1	.	.	.	?
CCN(CC)S(=O)(=O)c1ccc(N/N=C/c2cc(OC)c(OC)cc2OC)nc1	1.7	-0.6	.	13	-2	9	.	.	.	13%
CC(C)(CN1CCNCC1)NS(=O)(=O)c1ccc(Cl)cc1	0.5	.	6.1	.	8	.	-1	-13	9.4	.
O=C(NC1CC1)C1=C[C@H](c2ccc3c(c2)OCO3)C[C@H](OCc2ccc(CO)cc2)O1	0.1	-1.3	1.0	-3	1	-1	2	-9	4.9	2%
Cc1cc(SCC(=O)c2cccs2)nc2c(C)cccc12	0.7	8.2	.	30	-3	13	.	.	.	5%
CC(C)(C)c1ccc(S(=O)(=O)Nc2noc3ccccc23)cc1	-0.6	4.6	-4.1	-7	-3	-6	-2	-16	-0.1	3%
COc1nc(OCC#N)nc(N(C)C)n1	-0.4	6.2	.	-18	2	-6	.	.	.	-1%
CCN(CC)C(=O)C1CC(=O)N(c2ccc(F)c(Cl)c2)C1 (stereo unspecified)	-0.2	-0.7	.	1	1	3	.	.	.	0%
CS(=O)(=O)c1ccc(S(=O)(=O)N2CCC(CO)(CCCc3ccccc3)CC2)cc1	0.9	-3.2	-1.6	-10	-2	8	-12	-6	-0.5	.
Cc1[nH]c2ccccc2c1/C=C/C(=O)c1ccncc1	0.8	-20	0.6	35	7	-2	2	6	-1.2	12%
N#Cc1c(N)nc2c3c(sc(=N)c2c1N)NC(=O)CC3c1c(F)cccc1Cl (stereo unspecified)	-0.1	85*	.	-9	-7	-22	.	.	.	11%
CS(=O)(=O)Nc1cccc(C2=NN(S(=O)(=O)c3ccccc3)C(c3ccco3)C2)c1 (stereo unspecified)	-1.6	-0.7	7.3	6	4	2	-6	-13	0.1	8%
CNC(=O)NNC(=O)c1nc(-c2ccccc2)c(C)o1	0.3	1.8	1.0	-8	-1	2	18	20	2.7	.
Cc1cccc(-c2nnc(SCC(=O)Nc3ncccn3)n2C)c1	0.0	5.7	-0.6	-10	-7	-19	12	8	3.1	.
COc1ccc2nc(NC(=O)C3COc4ccccc4O3)sc2c1 (stereo unspecified)	-2.2	1.2	4.8	-2	-4	9	-38	-61	-6.2	-1%
Cc1ccc(C(=O)NCC(=O)Nc2ccncc2)s1	-0.9	1.3	-2.3	4	-1	-5	4	3	-1.3	.
COc1ccc(CCNC(=O)/C(=C/c2cccnc2)NC(=O)c2ccccc2)cc1OC	-0.4	0.7	3.3	2	-8	5	5	2	-0.5	-7%
COCCn1c(C)cc(C(=O)COC(=O)C23CC4CC(CC(O)(C4)C2)C3)c1C	0.0	-0.7	.	-18	2	-1	.	.	.	20%

Structural class: those above with bromine.
SMILES	A1 inh	RanGTP-Impb inh	AF4-AF9 inh	T cruzi inh	Beta cell apopt	Calb FLC	Ecoli rRNA inh	Ecoli rRNA inh OD600	Ecoli rRNA inh RFP	Vif A3G
COc1ccc(S(=O)(=O)NNc2nc(C)cc(C)n2)cc1Br	0.4	-0.4	-7.0	-3	-2	.	2	10	-1.7	.
O=C(NCCS(=O)(=O)c1ccc(Br)cc1)c1ccc(Cl)cc1Cl	1.0	-2.5	-7.1	-5	0	11	-1	1	-1.7	.

Entries of single compounds as entered above.
COc1ccc(CCNC(=O)/C(=C/c2cccnc2)NC(=O)c2ccccc2)cc1OC is entered as A1 inh = -0.4; RanGTP-Impb inh = 0.7; AF4-AF9 inh = 3.3; T cruzi inh = 2; Beta cell apopt = -8; Calb FLC = 5; Ecoli rRNA inh = 5; Ecoli rRNA inh OD600 = 2; Ecoli rRNA inh RFP = -0.5; Vif A3G = -7%
COc1ccc(S(=O)(=O)Nc2cccc(SC)c2)cc1OC is entered as A1 inh = 0.0; RanGTP-Impb inh = 2.8; AF4-AF9 inh = .; T cruzi inh = 1; Beta cell apopt = 6; Calb FLC = 1; Ecoli rRNA inh = .; Ecoli rRNA inh OD600 = .; Ecoli rRNA inh RFP = .; Vif A3G = ?
N#Cc1c(N)nc2c3c(sc(=N)c2c1N)NC(=O)CC3c1c(F)cccc1Cl (stereo unspecified) is entered as A1 inh = -0.1; RanGTP-Impb inh = 85*; AF4-AF9 inh = .; T cruzi inh = -9; Beta cell apopt = -7; Calb FLC = -22; Ecoli rRNA inh = .; Ecoli rRNA inh OD600 = .; Ecoli rRNA inh RFP = .; Vif A3G = 11%
